Compound activity from PubChem BioAssay.
HPGD block = qHTS Assay for Inhibitors of HPGD (15-Hydroxyprostaglandin Dehydrogenase); 15-hydroxyprostaglandin dehydrogenase [NAD(+)] (Homo sapiens), P15428; purified HPGD, NADH fluorescence kinetic, PGE2 substrate; Potency, µM, for inactives: at the highest dose activity change, negative = inhibition, most hits filed as inhibitors; 150,000 compounds, 4.3% hits; AID 894, 2007; active = well fitted inhibition curve with a large enough effect (not every such curve was filed as active); inconclusive = small, poorly fitted or top-dose-only effect, or another doubt; inactive = no such curve, though single readings can be large or run the other way;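 note: top concentration of the series not given in the record; plate controls included wells without enzyme; inactives centre near -10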
Target sequence (P15428 whole entry, looked up): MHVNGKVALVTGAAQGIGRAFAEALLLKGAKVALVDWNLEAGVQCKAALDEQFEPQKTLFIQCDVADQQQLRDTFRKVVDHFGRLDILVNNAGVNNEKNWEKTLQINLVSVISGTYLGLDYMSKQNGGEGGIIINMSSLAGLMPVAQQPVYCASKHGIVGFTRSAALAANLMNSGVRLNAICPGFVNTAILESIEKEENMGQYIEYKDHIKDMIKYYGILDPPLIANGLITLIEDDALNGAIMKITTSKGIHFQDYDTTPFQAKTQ
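20 nM HPGD preincubated 15 min at room temperature with compound in 50 mM Tris-HCl pH 8, 0.01% Tween 20. Started with 1 mM NAD+ and 30 uM prostaglandin E2; NADH fluorescence (360/450 nm) read 5 times over 30-s intervals, last minus first.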
Active calls of the source: *; ? = inconclusive; & = joins results of further samples; [ ] = remark or other dose. % is set by controls: 0 for no effect and ±100 for the full control effect; potency is the fitted concentration of half-maximal effect.

SMILES | HPGD block
CCOc1ccccc1NC(=O)C1C2C=CC(O2)C1C(=O)O (stereo not drawn) | -4%
C=CCn1c(SCc2ccc(Cl)cc2)nc2cc(C(=O)N3CCC(C(N)=O)CC3)ccc2c1=O | -3%
N#Cc1c(NC(=O)CCCN2C(=O)c3ccccc3C2=O)oc(-c2ccccc2)c1-c1ccccc1 | 65%[activator]
CC1CCCCC1NC(=O)CN1C(=O)NC(C)(c2ccc(OC(F)F)cc2)C1=O (stereo not drawn) | -6%
O=C(Cc1ccccc1)Nc1nc2ccccc2[nH]1 | -6%
N[C@H](C(=O)O)[C@H](N)C(=O)O | -1%
O=C(N/N=C/c1ccc(OC(F)F)cc1)c1ccc(CSc2nc3ccccc3[nH]2)cc1 | -9%
COc1cccc(/C=N/n2c(N)c(S(=O)(=O)c3cccs3)c3nc4ccccc4nc32)c1 | -26%
O=C(COC(=O)c1ccccc1-c1ccccc1[N+](=O)[O-])c1ccccc1 | -28%
Cn1c(C(O)c2ccccc2F)nc(Cl)c1Cl (stereo not drawn) | -7%
COc1cc2cc(C(c3nnnn3C3CCCC3)N3CCCCC3)c(=O)[nH]c2cc1OC (stereo not drawn) | -22%
C=C(C)Cn1c(SCC(=O)O)nnc1-c1ccc(C(C)(C)C)cc1 | -26%
CC(CN1CCOCC1)OC(=O)c1ccccc1Br (stereo not drawn) | -20%
CCCOc1ccc(CCc2n[nH]c(=S)n2Cc2ccccc2)cc1 | ?
CN(C)S(=O)(=O)c1cc(NC(=O)COC(=O)Cc2ccc(Cl)cc2Cl)ccc1Cl | -7%
COC(=O)c1cccc(NC(=S)Nc2cccc(Cl)c2C)c1 | -11%
COc1ccc(NC(=O)CC2C(=O)N(C)C(=S)N2Cc2ccco2)cc1 (stereo not drawn) | -13%
CN(C)S(=O)(=O)c1ccc(NC(=O)c2cc(-c3cccs3)nc3ccccc23)cc1 | ?
CC[C@H](C)[C@@H]1NC(=O)c2cc([N+](=O)[O-])cc(F)c2NCCCC[C@@H](C(N)=O)NC(=O)[C@H](CCCCN)NC1=O | -10%
CC(=O)c1cccc(NC(=O)N2CCCC2C(=O)NCCC(C)C)c1 (stereo not drawn) | -10%
COC(=O)C1=C(C)NC(=O)/C1=C\c1cc(C)n(-c2cc(C)cc(C)c2)c1C | -6%
CCN(CC)C(=O)c1ccccc1NC(=O)c1cccc(S(=O)(=O)N(CC)CC)c1 | -1%
Cc1cc(C(=O)COC(=O)c2cc(Cl)ccc2N)c(C)n1Cc1ccco1 | ?
Cc1cc(Nc2ccc(F)cc2F)n2nc(C)nc2n1 | -8%

Some of these compounds in order of formula weight, descending.
SMILES | HPGD block
CN(C)S(=O)(=O)c1cc(NC(=O)COC(=O)Cc2ccc(Cl)cc2Cl)ccc1Cl | -7%
CN(C)S(=O)(=O)c1ccc(NC(=O)c2cc(-c3cccs3)nc3ccccc23)cc1 | ?
CCN(CC)C(=O)c1ccccc1NC(=O)c1cccc(S(=O)(=O)N(CC)CC)c1 | -1%
Cc1cc(C(=O)COC(=O)c2cc(Cl)ccc2N)c(C)n1Cc1ccco1 | ?
COC(=O)C1=C(C)NC(=O)/C1=C\c1cc(C)n(-c2cc(C)cc(C)c2)c1C | -6%
COC(=O)c1cccc(NC(=S)Nc2cccc(Cl)c2C)c1 | -11%

Returning to the listing with the three entries that preceded the break.
SMILES | HPGD block
CCN(CC)C(=O)c1ccccc1NC(=O)c1cccc(S(=O)(=O)N(CC)CC)c1 | -1%
Cc1cc(C(=O)COC(=O)c2cc(Cl)ccc2N)c(C)n1Cc1ccco1 | ?
Cc1cc(Nc2ccc(F)cc2F)n2nc(C)nc2n1 | -8%
Cc1ccc(-c2cc(C(=O)N3CCN(c4ccc(F)cc4)CC3)c3ccccc3n2)o1 | ?
COc1ccc(OC)c(S(=O)(=O)NCCC2=CCCCC2)c1 | -16%
Cc1c(C=O)c2ccccn2c1C(=O)c1ccccc1 | -11%
O=C(Nc1ccccc1Sc1ccccc1)C1CCCO1 (stereo not drawn) | -3%
N=C(N)SCCc1ccc(CCSC(=N)N)cc1 | -24%
Cc1nc(-c2ccccc2)sc1C(=O)CSc1ccc(Cl)cc1 | -7%
Cc1ccccc1Nc1nc(-c2sc(NC(=O)c3ccc([N+](=O)[O-])cc3)nc2C)cs1 | -23%
COC(=O)C1(C(=O)OC)CC(CO)C(=O)[C@H]1c1ccccc1 (stereo partly drawn) | -3%&0%
NC(=O)c1c(NC(=O)CSc2nnc(-c3ccccc3)n2CC2CCCO2)sc2c1CCC2 (stereo not drawn) | ?
Nc1nc2c(s1)C(=O)CCC2 | 6%
COc1ccc(CC(=O)NCC(=O)N/N=C/c2ccc(C)o2)cc1 | -17%
CCn1c(COc2cccc(OC)c2)nnc1SCC(=O)Nc1cccc(OC)c1 | -14%
COCCCNC(=O)CCC(=O)NNc1nc2ccccc2c2nc(-c3ccccc3)nn12 | -3%
Cc1ccc(OCC(=O)Nc2cccc(-c3nnc(-c4ccccc4)o3)c2)c(C)c1 | -25%
CC(=O)C(Sc1ccc2nnc(-c3ccc(C)cc3)n2n1)C(C)=O | ?
O=C(NCCN1C(=O)C2C3C=CC(C3)C2C1=O)N1CCOCC1 (stereo not drawn) | 3%
O=C(O)c1nc(-c2ccccc2)n(-c2ccccc2)n1 | -4%
COc1ccc(-c2nc(C(F)(F)F)c(OC)o2)cc1OC | -12%
CCN1CCCC1Cn1c(-c2ccccc2)nc2c(NCCOC)nc(C)nc21 (stereo not drawn) | ?
COC(=O)Nc1nnc(SCc2ccc(C)cc2)s1 | -3%
Cc1sc2nc(C3CC3)nc(SCC(=O)N3c4ccccc4CC3C)c2c1C (stereo not drawn) | -14%
N[C@H](CO)C(=O)O | 4%
COc1ccc(CNC(=O)CSCc2cccc(Cl)c2)cc1 | -30%
O=C(c1cc(Cl)nc2ccccc12)N1CCCCC1 | -11%
COc1cccc(-n2nnc3c(=O)n(Cc4ccccc4Cl)cnc32)c1 | -21%
Cc1cccc(Cn2nnc3c2C(=O)c2ccccc2C3=O)c1 | 14µM*
COc1cc(/C=N/NC(=O)c2cncc(Br)c2)ccc1OC(=O)c1ccc2c(c1)OCO2 | ?
CC(C)N1C(=O)C2C(C(=O)NC3CCCCC3)C3C=CC2(O3)C1C(=O)NC1CCCC1 (stereo not drawn) | -5%
O=C(O)CN(c1ccccc1)C1SC(=O)NC1=O (stereo not drawn) | -7%
Cc1ccc(Cn2cccc2/C=C2/C(=N)N3C=CSC3=NC2=O)cc1 | -6%
N#Cc1ccc(NC(=O)COC(=O)CCNS(=O)(=O)c2ccccc2)cc1 | -16%
CC(C)C(=O)N=C1SC2CS(=O)(=O)CC2N1Cc1ccccc1 (stereo not drawn) | -5%
C/C(CC(=O)Nc1ccc(OCc2ccccc2)cc1)=N\NC(=O)C(=O)Nc1ccccc1C | -15%
c1ccc2[nH]c(SCc3ccc(-c4nnco4)cc3)nc2c1 | -28%
Brc1ccc2c(c1)CNc1c(ncnc1N1CCOCC1)O2 | -11%
O=Cc1ccc2noc(-c3ccc(F)cc3)c2c1 | -16%
CSc1ccc(-c2nc(CSCC(=O)N3CCOCC3)c(C)o2)cc1 | ?
CCSc1nc(-c2ccc(OC)cc2)n(-c2nc3ccccc3s2)n1 | ?
CCc1ccc(Nc2nnc(SCn3nnc4ccccc4c3=O)s2)cc1 | -19%
Cc1cnc(C(=O)Nc2nnc(C(C)C)s2)cn1 | -16%
Cc1cccc(-n2ncc3c(NC4CCCCC4)ncnc32)c1 | ?
CCC(CC)C(=O)NCc1ccccc1OC | -7%
O=C(CC1NC(=O)NC1=O)Nc1ccc(Cl)cc1 (stereo not drawn) | -6%
COc1ccc2c(=O)cc(-c3ccncc3)oc2c1OC | -11%
CC1(C)CCCC2=C1CC1C(=O)N(Cc3cccnc3)C(=O)C1C2 (stereo not drawn) | -4%
CCOC(=O)C(NCc1ccc2c(c1)OCO2)(NC(=O)c1ccccc1)C(F)(F)F (stereo not drawn) | -2%
O=C(Cn1cccc1)NC1CCCCCC1 | 14µM*
COc1cccc(/C=N/Nc2ncnc3scc(-c4ccccc4)c23)c1O | 20µM*
CC1(C)CCC(C)(C)c2cc(C(=O)Nc3ccc(C(=O)O)cc3)ccc21 | -5%&3%
Cc1ccc(SC(C)C(=O)Nc2c(C)n(C)n(-c3ccccc3)c2=O)cc1 (stereo not drawn) | 2%
CC1=C(C(=O)OC(C)C)C(c2cccc(F)c2)n2ncnc2N1 (stereo not drawn) | -4%
COc1cccc(C(=O)NCC(=O)OCC(=O)C(C)(C)C)c1 | 0%
COCCCNc1ncnc2c1[nH]c1ccccc12 | 6%
O=C(CCS(=O)(=O)c1cccs1)Nc1ccc(C(=O)NCc2cccs2)cc1 | -27%
Cc1cc(C(F)(F)F)c(C#N)c(SCC(=O)Nc2nc3ccccc3s2)n1 | -22%
CCOc1ccc2nc(NC(=O)CSc3nc(SC)ns3)sc2c1 | -14%
Cc1ccc(-c2csc3nc(SCC(N)=O)n(Cc4ccccc4)c(=O)c23)cc1 | -10%
COC(=O)c1c(-c2cccs2)csc1NC(=O)CSc1ncnc2sc(C)c(C)c12 | ?
Cc1nn(-c2ccccc2)c(C)c1C(=O)Nc1nnc(-c2ccco2)o1 | -14%
CCC(C)NC(=O)C1CCCN(C(=O)Nc2ccc(F)cc2)C1 (stereo not drawn) | -5%
Next results follow.
SMILES | HPGD block
C(=N\n1cnnc1)/c1cccc2ccccc12 | -26%
O=C(CS(=O)(=O)c1ccc(Cl)c(Cl)c1)Nc1ccccc1Cl | -9%
COc1ccc(/C=C/C(=O)N/C(=C\c2ccco2)C(=O)NCCc2nc3ccccc3[nH]2)cc1 | -18%
CCc1nc(C)cn1S(=O)(=O)c1cc(C)c(OC)cc1C | 6%
Cc1ccc(NC(=O)CC2COc3ccccc3O2)cc1 (stereo not drawn) | -8%
CS(=O)(=O)Nc1ccc(C(=O)Nc2ccccc2Sc2ccccc2)cc1 | ?
c1ccc2sc(NC3=NCN(Cc4ccc5c(c4)OCO5)CN3)nc2c1 | 0%
CCOc1ccc(S(=O)(=O)NCc2ccc(OC)cc2)c2cccnc12 | -12%
CCN(CC)c1ccc(N=Cc2ccc(N(CC)CC)cc2O)cc1 | -7%
O=C1CCc2cc(S(=O)(=O)N3CCCC3C(=O)N3CCN(c4ccccc4F)CC3)ccc2N1 (stereo not drawn) | -6%
c1ccc(CNc2nc3ccccc3n3cnnc23)nc1 | -15%
CCN(CC)S(=O)(=O)c1ccc(Cl)c(C(=O)NCc2ccccc2Cl)c1 | -6%
OCc1cn(-c2ccccc2)nc1-c1ccc2c(c1)OCCO2 | ?
O=C(CN1CCCC1)N1CCCC(c2ccc(F)cc2)c2ccc(F)cc21 (stereo not drawn) | 5%
COC(=O)c1nn(-c2ccc(Cl)cc2)c(=O)cc1Sc1ccccn1 | -5%
Cc1ccc(OS(=O)Nc2cccc3nccnc23)cc1 (stereo not drawn) | -14%
Cc1csc2nc(CNC(=O)C3CCCCC3)cn12 | 16µM*
Cc1ccc(NC(=S)NC(=O)c2c(-c3ccccc3Cl)noc2C)cc1 | -16%
CCOc1ccc(S(=O)(=O)N(CCO)CCO)cc1-c1nc2c(C(C)(C)C)nn(C)c2c(=O)[nH]1 | -3%
CC(C(=O)N1CCCCC1)n1ncn2cccc2c1=O (stereo not drawn) | -3%
CCOc1nc(-c2ccc(Cl)cc2Cl)ccc1C#N | -18%
COc1ccc(S(=O)(=O)N2CCCCCC2)cc1NC(=O)c1c2c(nc3ccccc13)CCN(Cc1ccccc1)C2 | 0%
COc1ccc(-c2nc(CS(=O)CC(=O)NCCC3=CCCCC3)c(C)o2)cc1 (stereo not drawn) | -20%
C[C@@H](C(=O)N[C@H](C(=O)O)c1ccccc1)n1nnc2ccccc2c1=O | -2%

In a second layout: entries from further up.
smiles	HPGD block
OCc1cn(-c2ccccc2)nc1-c1ccc2c(c1)OCCO2	?
O=C(CN1CCCC1)N1CCCC(c2ccc(F)cc2)c2ccc(F)cc21 (stereo not drawn)	5%
COC(=O)c1nn(-c2ccc(Cl)cc2)c(=O)cc1Sc1ccccn1	-5%

Other compounds follow:
SMILES | HPGD block
Nc1ccc(NC(=O)c2ccccc2)c2c1C(=O)c1ccccc1C2=O | -6%
Cc1ccc(NS(=O)(=O)c2ccc(OCC(=O)N3CCOCC3)cc2)cc1 | -1%
CCOc1cccc(=O)c2c(C)n(CC3CCCO3)c(C)c12 (stereo not drawn) | -11%
Cc1ccc(C)n1-c1ccc(N2CCOCC2)cc1 | -25%
CC(C)c1ccc(CN(C(=O)C2COc3ccccc3O2)C2CCS(=O)(=O)C2)cc1 (stereo not drawn) | -14%
CCCCOc1ccc(S(=O)(=O)Nc2cccnc2)cc1 | -12%
Cc1ccccc1C(=NC(=O)c1ccccc1)c1ccccc1 | -4%
Cc1ccc(OCc2nnc(SCC(=O)C(C)(C)C)n2Cc2ccco2)cc1 | -3%
NC(=O)Cc1ccc(Nc2nnc(-c3ccccc3)c3ccccc23)cc1 | -9%
CCN(CC(=O)NC1CCS(=O)(=O)C1)c1nc(-c2cccnc2)nc2ccccc12 (stereo not drawn) | -17%
CCc1ccc2c(c1)cc(CN(C(=S)Nc1ccc(Cl)cc1)C1CC1)c1nnnn12 | -22%
CSc1nc2sc3c(c2c2nncn12)CCC3 | -12%
N#Cc1ccccc1NC(=O)CSc1nnc(-c2ccccc2O)n1-c1ccccc1 | -12%
CCn1nc(C)c(C2C(C#N)=C(N)OC3=C2C(=O)CCC3)c1C (stereo not drawn) | -5%
O=C(Cn1c(=O)sc2ccccc21)Nc1ccc2c(c1)OCCO2 | -5%

Some of the compounds tested, so the mix of outcomes need not match the whole.
